Polio RdRp inh: poliovirus RNA polymerase inhibition; P03300; poliovirus polymerase elongation, fluorescence polarization; active compounds read low; % elongation, % (compound at 16.7 µg/mL); 150,000 tested, 0.66% active; AID 588519; in the data active = % elongation below about 90%; also: some results filed as inactive read as strong as hits
Target sequence (P03300 1749-2209 limits assumed): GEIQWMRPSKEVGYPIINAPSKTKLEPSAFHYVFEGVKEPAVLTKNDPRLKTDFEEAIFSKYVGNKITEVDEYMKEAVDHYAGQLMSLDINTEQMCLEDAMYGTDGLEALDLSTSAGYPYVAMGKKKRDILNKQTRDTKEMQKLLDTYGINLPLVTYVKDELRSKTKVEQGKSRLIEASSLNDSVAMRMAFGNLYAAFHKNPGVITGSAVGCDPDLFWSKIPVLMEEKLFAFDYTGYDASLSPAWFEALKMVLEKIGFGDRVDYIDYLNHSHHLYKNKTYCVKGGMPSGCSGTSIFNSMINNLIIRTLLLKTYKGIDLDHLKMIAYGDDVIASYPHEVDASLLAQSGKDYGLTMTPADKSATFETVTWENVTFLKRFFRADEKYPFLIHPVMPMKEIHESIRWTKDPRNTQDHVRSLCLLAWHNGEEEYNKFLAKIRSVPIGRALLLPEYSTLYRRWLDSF
Polio RdRp inh intensity: also measured in Polio RdRp inh; calls as there; % elongation; measured here: total intensity read-out; formula for this scale not given here;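 total fluorescence in place of polarization; lower means less elongation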
Starred values were filed as active, the others as inactive. Some of the compounds tested (hit frequency here may not be typical).

SMILES	Polio RdRp inh	Polio RdRp inh intensity
COc1ccc(NCc2nc3ccccc3n2CCOc2ccc(C)cc2)cc1	105	106
CCN(CCCNC(=O)c1ccc(Sc2ccc(F)cc2)c(NC(C)=O)c1)c1ccccc1	111	107
COc1ccccc1N(CC(=O)NCCSc1ccccc1)S(=O)(=O)c1ccc(C)cc1	105	106
Cc1nn(-c2ccc(F)cc2)c(-n2cccc2)c1C(=O)N1CCN(c2ccccc2F)CC1	99	102
COc1ccc(N(CC(=O)Nc2cccc(C(C)=O)c2)S(=O)(=O)c2ccccc2)c(OC)c1	89	91
CCOC(=O)c1[nH]c2c(c1Cc1ccccc1)C(=O)CC(c1ccc(Cl)cc1)C2 (stereo not given)	103	105
Cc1nc(-c2ccc(F)cc2)sc1CCNC(=O)Cc1ccc(F)cc1	105	107
COc1ccc(CCNC(=O)c2ccc3c(c2)N(Cc2ccc(F)cc2)C(=O)CS3)cc1OC	112	104
COc1ccc(-n2nc3c(N4CCC(C(=O)NC5CCCCC5)CC4)nnc(C)c3c2C)cc1	110	106
CC1=C(c2ccc(C)c(C)c2)S(=O)(=O)N(Cc2ccc(C(=O)NCc3ccc(C)cc3)cc2)C1=O	113	115
Cc1ccc2c(CC(=O)Nc3ccc(S(=O)(=O)N4CCCCC4C)cc3)coc2c1 (stereo not given)	123	125
O=c1cc(-c2ccc(F)cc2)nc(SCc2nc(-c3cccc(C(F)(F)F)c3)no2)[nH]1	109	114
CCCn1c(CCC(=O)Nc2cc(OC)cc(OC)c2)nc2cccnc21	110	111
COc1ccc(NC(=O)CCS(=O)(=O)c2cc3c(cc2C)NC(=O)CO3)cc1Cl	109	99
CCCOC(=O)c1ccc(NC(=O)C2CC(=O)N(c3ccc(C)cc3)C2)cc1 (stereo not given)	107	113
Cc1cccc(-c2nc3c(C#N)c[nH]n3c2NC2CCCCC2)c1	108	113
COc1ccc(S(=O)(=O)N(CC(=O)NCCSCc2ccccc2)c2ccc(C)cc2)cc1	103	103
CCOc1ccccc1-c1nc(SCC(=O)c2ccc(OC)c(Br)c2)n[nH]1	112	116
O=C(Nc1ccc(NC(=O)c2cccs2)cc1)c1ccc(Br)cc1	104	99
COc1ccc(NC(=O)Cn2c(C)cc3ccccc3c2=O)c(OC)c1	107	109
COc1ccc(Cn2c(CO)cnc2SCc2ccccc2C)cc1	110	109
O=C(COc1ccccc1)Nc1ccccc1C(=O)OCc1cc(=O)n2nc(C3CC3)sc2n1	106	110
Cc1ccc(C(c2sc3nc(-c4ccco4)nn3c2O)N2CCN(Cc3ccccc3)CC2)cc1 (stereo not given)	110	99
Cc1ccc2ccc(C(Nc3ccccn3)c3ccccc3)c(O)c2n1 (stereo not given)	112	118
COCCCNC(=O)Cn1c(=O)n(-c2ccc(C)c(C)c2)c(=O)c2c3c(sc21)CCCCC3	106	107
Remaining list, next part:
SMILES	Polio RdRp inh	Polio RdRp inh intensity
Cc1ccc(-n2ncc(C(=O)NCCCN3CCc4ccccc4C3)c2C2CCN(C(=O)OC(C)(C)C)CC2)c(C)c1	97	102
COc1ccc(-n2c(SCc3nc(-c4ccc(C)cc4)no3)nnc2-c2ccccc2)cc1	104	108
Cc1ccc(CNc2ccc(-c3nc(-c4ccccn4)no3)cc2[N+](=O)[O-])cc1	107	98
COc1ccc(NC(=O)CN(C)S(=O)(=O)c2ccc3c(c2)CCC(=O)N3)c(OC)c1	104	107
COc1ccccc1NC(=O)CCS(=O)(=O)c1ccc2nc(C)sc2c1	109	112
Cc1cc2c(cc1S(=O)(=O)CCC(=O)NC1CCC(C)CC1)OCC(=O)N2 (stereo not given)	107	112
CC1CCN(c2nc3ccc(C(=O)NCc4ccccc4Cl)cc3s2)CC1	108	107
CCc1cccc(NC(=O)C(CC(C)C)NS(=O)(=O)c2ccc3c(c2)oc(=O)n3C)c1 (stereo not given)	104	102
O=C(Nc1cccc(Cl)c1)C1CCN(c2nc3ccccc3nc2C(F)(F)F)CC1	107	113
Cc1ccc(-c2nc3cc(C(C)C)ccc3o2)cc1NC(=O)c1cccs1	108	110
Cc1ccc(CNC(=O)C2CCCCN2S(=O)(=O)c2ccc(F)cc2)cc1 (stereo not given)	110	112
CCOc1ccc(NC(=O)CC2Nc3cccc4cccc(c34)NC2=O)cc1 (stereo not given)	93	97
O=C(Cn1c(=O)oc2cc(S(=O)(=O)NCc3ccccc3)ccc21)NCc1ccc(Cl)cc1	107	104
CCOc1ccc(N2CC(NC(=O)c3cc4ccccc4o3)CC2=O)cc1 (stereo not given)	112	94
Cc1ccc(C2=CC(c3ccccc3C)n3c(nc4ccccc43)N2)cc1 (stereo not given)	105	138
CCOC(=O)c1[nH]c(C)c(CCC(=O)NCc2ccc(OC(C)C)cc2)c1C	102	108
COc1cc(-c2nc3ncccn3c2Nc2ccc(C)cc2C)ccc1O	117	111
COc1ccc(Cc2nc3c4cnn(-c5ccccc5F)c4ncn3n2)cc1	118	118
CCN1CCN(c2oc(/C=C/c3cc(OC)c(OC)c(OC)c3)nc2C#N)CC1	104	107
CN1CCN(C(CNC(=O)C(=O)Nc2ccc(F)cc2)c2cccnc2)CC1 (stereo not given)	111	108
O=C1Cc2cc(S(=O)(=O)N3CCN(c4ccccc4)CC3)ccc2N1	104	103
CC(C)c1ccc2occ(CC(=O)Nc3cccc(C(F)(F)F)c3)c2c1	118	118
COc1ccc(OCC(=O)N2CCN(C(=O)c3cc(OC)c(OC)c(OC)c3)CC2)cc1	104	106
Clc1cccc(-n2ncc3c(NCCCc4ccccc4)ncnc32)c1	105	107
Cc1ccc(-c2cn3c(n2)sc2cc(C(=O)NC4CCCCCC4)ccc23)c(C)c1	108	113

The closing two entries of the part above are carried over, then new ones follow.
SMILES	Polio RdRp inh	Polio RdRp inh intensity
Clc1cccc(-n2ncc3c(NCCCc4ccccc4)ncnc32)c1	105	107
Cc1ccc(-c2cn3c(n2)sc2cc(C(=O)NC4CCCCCC4)ccc23)c(C)c1	108	113
O=C(c1ccc2c(c1)N(Cc1ccccc1F)C(=O)c1ccccc1S2(=O)=O)N1CCN(c2ccccn2)CC1	108	112
CCOC(=O)c1cc(S(=O)(=O)N2CCN(c3ccc(F)cc3)CC2)[nH]n1	110	107
CCN(CC)CCNC(=O)c1ccc2nc(CCc3ccccc3)oc2c1	108	110
Cn1cnc(S(=O)(=O)N2CCC(C(=O)N3CCN(c4ccc(Cl)cc4)CC3)CC2)c1	102	110
Cc1ccc2c(=O)cc(C(=O)Nc3ccc(S(=O)(=O)Nc4onc(C)c4C)cc3)oc2c1	101	101
COc1ccc(OC)c(NC(=O)CSc2ccnc(=O)[nH]2)c1	108	106
O=C(NC1(C(F)(F)F)N=C(c2ccccc2)N(C2CCCCC2)C1=O)c1ccc(F)cc1 (stereo not given)	109	113
COC(=O)c1cccc(Cn2nnc3sc4c(c3c2=O)CCC(C(C)(C)C)C4)c1 (stereo not given)	112	113
CCCc1ccc(S(=O)(=O)N2CCC(c3nnc(-c4cccc(C)c4)o3)CC2)cc1	105	110
CNc1nc2c(c(=O)n(C)c(=O)n2C)n1CC(O)COc1ccc(OC)cc1 (stereo not given)	104	108
O=C(CCS(=O)(=O)c1cccc2nonc12)Nc1ccc(F)cc1F	102	91
Cn1c(=O)c2c(nc3n(-c4ccc(O)cc4)c(-c4ccc(Br)cc4)cn23)n(C)c1=O	109	104
Cc1ccc(C(=O)N2CCc3cc(CNC(=O)COc4ccccc4)ccc32)cc1	108	109
CCN(CC)S(=O)(=O)c1ccc2c(c1)N(CC(=O)N1CCN(c3ccc(Cl)cc3)CC1)C(=O)CO2	108	113
COc1ccc(CCNC(=O)c2cc(-c3ccccc3)nc3ccccc23)cc1OC	106	106
O=C(CCNS(=O)(=O)c1ccc(Br)s1)Nc1ccc(Br)cc1	109	109
O=C(NC1CC(=O)N(c2ccccc2)C1)C(c1ccccc1)c1ccccc1 (stereo not given)	107	105
Cc1ccc(CNC(=O)CCSCc2ccccc2F)cc1	105	110
COC(=O)c1ccccc1NC(=O)Cn1c(=O)cc(C)c2c(C)nn(C)c21	101	106
Cc1cccc(CSc2ccc(-c3cccs3)nn2)c1	106	107
O=C(CCNS(=O)(=O)c1ccc2c(c1)CCCC(=O)N2)NCc1ccc(Cl)cc1	104	109
CC(=O)c1cccc(NC(=O)CN2C(=O)CC(c3ccc(C)cc3C)=Nc3ccccc32)c1	108	98
Cc1c(C(=O)Nc2ccc(F)cc2F)sc2nc3n(c(=O)c12)N=C(c1ccccc1)CS3	105	107
CCc1ccc(C2N=C(N)Nc3nc4ccccc4n32)cc1 (stereo not given)	99	97
CCC(Cc1ccccc1)NC(=O)c1oc(=O)c2ccccc2c1-c1ccccc1 (stereo not given)	103	105
Other entries follow:
SMILES	Polio RdRp inh	Polio RdRp inh intensity
COc1ccc(-c2cn3nc(N4CCC(C(=O)Nc5cccc(OC)c5)CC4)sc3n2)cc1	105	104
CSc1ccc(-c2nnc(NC(=O)c3ccc4c(c3)OCCO4)o2)cc1	110	111
Cc1ccccc1CSc1nnc2[nH]c(=O)cc(-c3ccccc3)n12	106	105
Cc1nn(CC(=O)NCc2ccc(Cl)cc2)c(=O)c2cc3sccc3n12	105	109
Cc1ccc2c(c1)C(c1ccccc1)N(C(=O)c1ccc(S(=O)(=O)N3CCCCC3)cc1)CC(=O)N2 (stereo not given)	103	112
CCCN1C(=O)c2[nH]nc(-c3ccc(OC)cc3)c2C1c1ccccn1 (stereo not given)	111	108
Cc1ccccc1-n1nc(C)c2c1NC(=O)CSC2c1ccc(Cl)cc1 (stereo not given)	104	101
CCOC(=O)c1c(C)[nH]c(C)c1S(=O)(=O)N1CCCC(C(=O)Nc2ncccc2C)C1 (stereo not given)	110	112
COc1ccc(C)cc1NC(=O)C1CCN(S(=O)(=O)Cc2ccccc2)CC1	110	118
CCCCNC(=O)c1ccc2c(c1)N(Cc1ccc(F)cc1)C(=O)c1ccccc1S2=O (stereo not given)	105	110
Cc1ccc(NC(=O)CSc2ncc3c(n2)-c2ccccc2N(Cc2cccc(F)c2)S3(=O)=O)cc1F	108	110
COc1ccc(NC(=O)CSc2nc3ccccc3n2CC(=O)N(C)c2ccc(F)cc2)cc1	102	107
COc1ccc(NS(=O)(=O)c2ccc3c(c2)[C@H]2C=CC[C@H]2[C@@H](c2ccc(C(=O)O)cc2)N3)cc1	110	129
CCOc1ccccc1-n1nnc(-c2nsc(NC(=O)c3ccc(C)cc3)n2)c1C	112	112
Cc1cccc(-c2nnn3c2nc(NCCc2ccc(S(N)(=O)=O)cc2)c2ccccc23)c1	107	110
Cc1ccc(C(C)C)c(OCC(=O)N2CCC(c3nc4ccccc4o3)CC2)c1	106	97
COc1ccc(-c2nc(SCC(=O)NCC3CCCO3)c(-c3ccc(C)cc3)[nH]2)cc1OC (stereo not given)	117	115
COc1ccc(N2CCN(C(=O)c3cnn(-c4ccc(OC)cc4)c3C3CCN(C(=O)OC(C)(C)C)CC3)CC2)cc1	114	113
Cc1cccc(CS(=O)(=O)CC2Nc3ccc(C(=O)NCc4ccccc4)cc3NC2=O)c1 (stereo not given)	114	117
COc1cccc(CNC(=O)c2cc3cccc4c3n2CC(C)S4)c1OC (stereo not given)	103	99
CCc1ccc(C(=O)c2cn(CC(=O)Nc3ccc(OC)c(OC)c3)c3ccc(C)cc3c2=O)cc1	103	107
COc1cccc(N2CCN(C(=O)CN3CCSc4ccc(S(=O)(=O)N(C)C)cc43)CC2)c1	107	114
Cc1ccccc1NC(=O)c1ccc(NC(=O)N2CCSc3ncccc32)cc1	113	113
CC(=O)c1ccc(Nc2ccc3cc(S(=O)(=O)N4CCCC4)ccc3n2)cc1	104	112
Cc1ccccc1NC(=O)Cn1c(=O)n(Cc2ccc3c(c2)OCO3)c(=O)c2ccccc21	108	112
(next part)
SMILES	Polio RdRp inh	Polio RdRp inh intensity
Cc1ccc(C)c(Cn2cnc3ccccc3c2=O)c1	101	106
CCCCNC(=O)c1ccc2c(c1)NC(=O)C(CS(=O)(=O)Cc1ccc(C)cc1)N2 (stereo not given)	116	122
O=C(NCCc1csc(-c2ccc(F)cc2)n1)c1cccc(F)c1	110	108
CC(C)Oc1ccc(C(=O)N2CCN(c3nc4c(F)cc(F)cc4s3)CC2)cc1	102	98
O=C1Nc2ccccc2Oc2cc(Oc3ccccc3)ccc21	102	110
CCOC(=O)c1c(C)n(-c2ccccc2)c2ccc(OC(=O)c3c(F)cccc3F)cc12	102	103
CCOCCn1ccc2c(OCC(=O)Nc3cc(C)cc(C)c3)cccc2c1=O	109	105
Cc1cc(O)c(C(c2cccc(F)c2)N2CCC(C)CC2)c(=O)n1Cc1ccco1 (stereo not given)	101	104
O=C(c1ccc(F)cc1)n1nc(-c2cccnc2)nc1NCc1ccccc1	105	105

By substructure, the compounds so far containing an aryl thioether with sulfur outside any ring (13)
SMILES	Polio RdRp inh	Polio RdRp inh intensity
CCN(CCCNC(=O)c1ccc(Sc2ccc(F)cc2)c(NC(C)=O)c1)c1ccccc1	111	107
COc1ccccc1N(CC(=O)NCCSc1ccccc1)S(=O)(=O)c1ccc(C)cc1	105	106
O=c1cc(-c2ccc(F)cc2)nc(SCc2nc(-c3cccc(C(F)(F)F)c3)no2)[nH]1	109	114
CCOc1ccccc1-c1nc(SCC(=O)c2ccc(OC)c(Br)c2)n[nH]1	112	116
COc1ccc(Cn2c(CO)cnc2SCc2ccccc2C)cc1	110	109
COc1ccc(-n2c(SCc3nc(-c4ccc(C)cc4)no3)nnc2-c2ccccc2)cc1	104	108
COc1ccc(OC)c(NC(=O)CSc2ccnc(=O)[nH]2)c1	108	106
Cc1cccc(CSc2ccc(-c3cccs3)nn2)c1	106	107
CSc1ccc(-c2nnc(NC(=O)c3ccc4c(c3)OCCO4)o2)cc1	110	111
Cc1ccccc1CSc1nnc2[nH]c(=O)cc(-c3ccccc3)n12	106	105
Cc1ccc(NC(=O)CSc2ncc3c(n2)-c2ccccc2N(Cc2cccc(F)c2)S3(=O)=O)cc1F	108	110
COc1ccc(NC(=O)CSc2nc3ccccc3n2CC(=O)N(C)c2ccc(F)cc2)cc1	102	107
COc1ccc(-c2nc(SCC(=O)NCC3CCCO3)c(-c3ccc(C)cc3)[nH]2)cc1OC (stereo not given)	117	115
